Screening results from PubChem BioAssay.
GALR2 agonist = activates the human galanin receptor 2; GALR2-expressing cells, agonist activation read-out; activation, %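 (tested at 5 µM)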; 140,000 tested, 0.48% active;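 active = above mean plus 3 SD of all compounds, about 5% in these data, not always enough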;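 also: 0% = vehicle buffer wells and 100% = reference agonist at full effect; tested in CHO reporter cells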
Target sequence (O43603 whole entry, looked up): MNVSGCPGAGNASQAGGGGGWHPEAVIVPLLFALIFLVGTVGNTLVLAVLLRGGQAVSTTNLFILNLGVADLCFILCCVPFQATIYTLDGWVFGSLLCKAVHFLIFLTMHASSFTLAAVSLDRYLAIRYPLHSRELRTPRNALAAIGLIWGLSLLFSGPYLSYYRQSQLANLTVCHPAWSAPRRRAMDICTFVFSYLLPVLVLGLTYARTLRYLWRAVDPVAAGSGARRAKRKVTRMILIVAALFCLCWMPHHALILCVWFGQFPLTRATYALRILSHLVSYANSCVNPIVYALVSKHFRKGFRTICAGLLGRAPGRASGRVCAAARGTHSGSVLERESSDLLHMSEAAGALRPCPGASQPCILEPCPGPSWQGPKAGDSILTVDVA
HSV replic up = HSV replication enhancement; HSV replication augmentation in cells, fold increase; maximum fold increase; 220,000 tested, 0.005% active;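 active = peak rise of 1.5-fold or more in the series; tested in PC3 cells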;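 also: first round at 10 µM; read as green reporter fluorescence; hits show the peak of a series up to 25 µM; 1 = signal of infected wells without compound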
PKD1 kinase inh = PKD1 (human) kinase inhibition. AID 797. inhibition, %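 (about 10 µM by stock and volumes)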. PKD1 kinase fluorescence polarization assay. 200,000 tested, 0.056% active;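 active = inhibition of 50% or more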;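 also: controls were vehicle for no effect and a reference inhibitor for full effect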
RGS16-Gao HTS = RGS16-Galphao interaction regulator (human) | O15492+P09471 | bead-based flow cytometry RGS16-Galphao binding, fluorescence; actives lie on both sides | binding response (% of control), % at 10 µM | 220,000 tested, 0.38% active;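 active = below 25% or above 175%, edge rows of some plates excepted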;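 also: Galphao activated by GDP with aluminum fluoride before binding; 100% = wells without compound and 0% = beads without RGS; some results beyond the cut were filed as inactive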
Target sequence (O15492 whole entry, looked up): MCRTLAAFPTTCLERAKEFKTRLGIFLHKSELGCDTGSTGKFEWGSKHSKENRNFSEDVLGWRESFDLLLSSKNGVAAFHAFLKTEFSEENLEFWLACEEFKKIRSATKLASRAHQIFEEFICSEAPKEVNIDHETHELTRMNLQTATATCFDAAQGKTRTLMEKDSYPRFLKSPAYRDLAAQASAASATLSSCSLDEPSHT
Target sequence (P09471 whole entry, looked up): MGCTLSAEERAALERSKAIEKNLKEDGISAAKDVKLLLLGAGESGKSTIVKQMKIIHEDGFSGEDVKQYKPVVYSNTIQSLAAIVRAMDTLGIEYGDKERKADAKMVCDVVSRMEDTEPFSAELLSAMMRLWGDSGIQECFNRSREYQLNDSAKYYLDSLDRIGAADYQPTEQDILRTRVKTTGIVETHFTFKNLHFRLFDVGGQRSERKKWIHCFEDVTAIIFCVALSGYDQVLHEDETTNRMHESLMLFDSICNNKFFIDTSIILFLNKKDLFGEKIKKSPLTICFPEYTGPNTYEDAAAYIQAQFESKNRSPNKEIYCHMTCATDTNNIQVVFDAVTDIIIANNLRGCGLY
Insulin prom inh = TRM-6 insulin promoter activity inhibition | inhibition, % at 2 µM | TRM-6 cells (human fetal islet line), insulin promoter-eGFP reporter, imaging; reporter expression induced with tamoxifen | 130,000 tested, 0.9% active;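 active = inhibition above the mean plus 3 SD, with well images judged a real hit on visual review, cut at about 60% in these data, passing the limit was not always enough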
Insulin prom inh cell count = further read-out of Insulin prom inh, marked with its call; normalized cell count, %; measured here: cell count, toxicity; reference of the scale not given here;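 cells exposed to compound for 48 h; stained nuclei by imaging scaled within each plate; lower means fewer cells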
HSV replic up primary fold = also measured in HSV replic up; calls as there; fold increase; compound at 10 µM; measured here: primary screen fold increase 10 uM; tested in PC3 cells;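 GFP signal in the first replicate; 1 = infected wells without compound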
* marks the source's active call; other numbers are inactive results; i = inactive; x = no result given.

Results follow in this order: GALR2 agonist	HSV replic up	HSV replic up primary fold	PKD1 kinase inh	RGS16-Gao HTS	Insulin prom inh	Insulin prom inh cell count
> COC(=O)c1nnn(-c2nonc2N)c1CN1CCc2ccccc21
 : -3.1	i	0.93	2	103	-52	147
> O=C(CCc1ccc(S(=O)(=O)N2CCOCC2)cc1)N1CCN(Cc2ccc3c(c2)OCO3)CC1
 : -1.9	i	1	-2	100	-62	78
> CCN(CC)c1nc(Nc2ccccc2)nc(Oc2ccc(=O)[nH]n2)n1
 : -2.9	i	0.91	-5	98	38	81
> CCn1c(CSc2nc3ccccc3s2)nc2ccccc21
 : 0.0	i	0.99	0	94	-61	137
> COCCN1C(=O)c2[nH]nc(-c3ccccc3O)c2C1c1ccc(OC)cc1 (configuration not stated)
 : x	i	0.92	x	98	x	x
> CCC1(C(=O)OC)CCc2c(cc(OC)c3ccccc23)C1=O (configuration not stated)
 : x	i	1.2	x	102	x	x
> CC(O)CNC(=O)Cc1cc(=O)[nH]c(=O)[nH]1 (configuration not stated)
 : x	i	0.92	x	99	x	x
> O=C(COC(=O)CNC(=O)c1ccccc1F)Nc1ccc2c(c1)OCCO2
 : -1.1	i	0.98	-3	106	x	x
> COc1ccc(N2CCC(CNC(=O)Nc3ccc(Cl)cc3)C2)cc1 (configuration not stated)
 : x	i	0.91	2	100	x	x
> COC(=O)c1cccc(-n2c(C)cc(C=O)c2C)c1
 : -1.0	i	1.1	1	98	-21	93
> CCn1c(C(=O)NCCCN2CCc3ccccc3C2)cc2sccc21
 : -1.3	i	0.95	-9	102	x	x
> COc1ccccc1CNC(=O)c1cccc(S(=O)(=O)N2CCN(C)CC2)c1
 : x	i	0.96	4	98	8	102
> CCc1nc2ccccc2n1CC(C)C(=O)O (configuration not stated)
 : -1.3	i	0.74	1	123	56	118
> CN(C)/C=C/c1[nH]c(=O)[nH]c(=O)c1[N+](=O)[O-]
 : x	i	0.88	x	98	x	x
> Cc1ccnc(SCCn2c(N3CCN(c4ccccc4)CC3)nc3c2c(=O)[nH]c(=O)n3C)n1
 : -0.2	x	x	-3	101	x	x
> N#Cc1ccc(N2CCN(C(=O)c3cccc(F)c3)CC2)c(F)c1
 : -1.4	i	1	-7	81	x	x
> C=C(C)C(=O)Nc1cccc(C2=NOC3(C2)C[C@@H](C(N)=O)N(C(=O)/C=C/C=C/C)C3)c1 (some centres not stated)
 : x	i	1	x	98	x	x
> CN1C(=O)C2C(c3ccc(N(C)C)cc3)=NN(Cc3ccccc3)C2C1=O (configuration not stated)
 : x	i	0.89	-6	106	45	229
> O=C(NCCCN1CCCC1=O)c1nnc(Cc2c(F)cccc2Cl)o1
 : -2.0	i	0.87	-10	98	x	x
> O=C(N/N=C/c1ccc(N2CCOCC2)cc1)c1ccccn1
 : x	i	1	x	94	x	x

Individual results from the entries so far.
In HSV replic up primary fold, CCn1c(C(=O)NCCCN2CCc3ccccc3C2)cc2sccc21 shows 0.95
In Insulin prom inh cell count, CCn1c(CSc2nc3ccccc3s2)nc2ccccc21 shows 137
In GALR2 agonist, CCN(CC)c1nc(Nc2ccccc2)nc(Oc2ccc(=O)[nH]n2)n1 shows -2.9

Next structures
Results follow in this order: GALR2 agonist	HSV replic up	HSV replic up primary fold	PKD1 kinase inh	RGS16-Gao HTS	Insulin prom inh	Insulin prom inh cell count
> CCC(C)C(=O)Nc1ccc(OC)cc1[N+](=O)[O-] (configuration not stated)
 : -1.2	i	0.91	-5	110	-71	72
> CC1CCc2c(sc(NC(=O)CSc3ncn[nH]3)c2C#N)C1 (configuration not stated)
 : x	i	1	x	96	x	x
> O=C(Cn1cnc2ccccc2c1=O)NNC(=O)c1ccccc1
 : x	i	0.97	x	96	x	x
> CCc1nc(SCc2ccc(F)cc2)n[nH]1
 : x	i	1	0	103	30	63
> Cc1ccc(Cn2cnc3ccccc32)cc1
 : -4.0	i	0.81	-1	117	-19	150
> CC(C)CSc1n[nH]c(=S)s1
 : x	i	0.93	-10	101	42	62
> COc1ccc(NC(=O)COC(=O)c2ccc(OCc3c(C)noc3C)cc2)cc1OC
 : -2.5	i	0.98	-12	106	22	185
> O=C(NC1CCCCC1)N(CCN1CCCC1)Cc1cc2cc3c(cc2[nH]c1=O)OCCO3
 : -4.9	i	1.2	-25	106	-7	130
> C=C(C)CNC(=S)N1CCNC(=O)C1CC(=O)OC (configuration not stated)
 : -1.5	i	0.9	-13	92	7	61
> O=C(/C=C/Nc1cccc(C(F)(F)F)c1)C(F)(F)F
 : -0.9	x	x	6	106	x	x
> COc1ccccc1NCCC(=O)O
 : x	i	0.92	x	100	x	x
> CCC(C)NS(=O)(=O)c1ccc(OCC(=O)NCC2CCCO2)cc1 (configuration not stated)
 : -0.3	i	0.95	-1	107	-49	94
> O=S(=O)(Nc1ccc(F)cc1)c1ccc(NC(=S)Nc2ccccc2)cc1
 : -3.0	x	x	3	100	x	x
> COc1ccc(OC)c(-c2csc(NC(=O)c3ccc4c(c3)OCO4)n2)c1
 : x	i	0.92	3	100	x	x
> COc1ccc(NC(=O)CN2CCN(S(=O)(=O)c3ccc(Cl)cc3)CC2)cc1Cl
 : -2.3	i	0.92	-6	106	x	x
> NS(=O)(=O)c1ccc(CCNC(=O)C2CCC(Cn3c(=S)[nH]c4ccccc4c3=O)CC2)cc1 (configuration not stated)
 : x	i	0.92	-3	11*	27	123
> CC1=C(C)CC(C(=O)Nc2cccc(Cl)c2)C(C(=O)O)C1 (configuration not stated)
 : 0.5	i	0.92	-2	104	33	107
> Cn1cc(C(=O)c2ccc(Cl)cc2Cl)cc1C(=O)N/N=C(\N)COc1ccc(Cl)cc1Cl
 : -1.3	x	x	-3	92	-29	162
> COc1ccc(O[C@H]2C=C[C@@H](c3ccccc3)O[C@@H]2COC(=O)CC/C(C)=N/O[C@@H](C)c2cn([C@H](CO)Cc3ccccc3)nn2)cc1
 : -2.7	i	0.8	-3	98	-86	47
> CC1CN(c2nc3ccccc3nc2C(C#N)C(=O)OC2CCCCC2)CC(C)O1 (configuration not stated)
 : -1.8	i	0.91	3	80	29	132

Whole records, looked up by structure. Values in the order: GALR2 agonist | HSV replic up | HSV replic up primary fold | PKD1 kinase inh | RGS16-Gao HTS | Insulin prom inh | Insulin prom inh cell count
COc1ccc(NC(=O)CN2CCN(S(=O)(=O)c3ccc(Cl)cc3)CC2)cc1Cl in the list: -2.3 | i | 0.92 | -6 | 106 | x | x
C=C(C)CNC(=S)N1CCNC(=O)C1CC(=O)OC (configuration not stated) in the list: -1.5 | i | 0.9 | -13 | 92 | 7 | 61
O=C(/C=C/Nc1cccc(C(F)(F)F)c1)C(F)(F)F in the list: -0.9 | x | x | 6 | 106 | x | x

(listing goes on)
Results follow in this order: GALR2 agonist	HSV replic up	HSV replic up primary fold	PKD1 kinase inh	RGS16-Gao HTS	Insulin prom inh	Insulin prom inh cell count
> Cc1cc(C)n(-c2nc(C)nc(N)n2)n1
 : 0.1	i	1.1	-6	106	-23	59
> CCOc1ccc(NC(=O)C2CCC(CNc3c(N4CCCCC4)c(=O)c3=O)CC2)cc1 (configuration not stated)
 : x	i	0.97	x	143	x	x
> Cc1ccc2c(c1)c(N=NC(N)=S)c(O)n2Cc1ccccc1
 : 4.2	i	0.95	-5	75	52	62
> COc1ccc(C(C(=O)NCc2ccccc2)N(Cc2ccco2)C(=O)c2cnccn2)cc1 (configuration not stated)
 : x	i	1	-5	105	21	129
> COc1ccc(OCCSc2nc3nc(C)cc(C)n3n2)cc1
 : x	i	0.91	1	101	x	x
> Cc1cc(Cl)ccc1OCCCC(=O)OCC(N)=O
 : x	i	0.94	-7	97	x	x
> O=C1CCCC2=C1C(c1cccc(Br)c1)n1nc(-c3ccco3)nc1N2 (configuration not stated)
 : 0.3	i	0.75	2	x	x	x
> COCCN1CCN(c2c3c(nc4cc(-c5cccc(F)c5)nn24)CCC3)CC1
 : -1.3	i	0.84	-7	108	30	27
> O=C(NCc1cccnc1)c1cc(Cl)ccc1[N+](=O)[O-]
 : -1.0	i	1	4	41	-30	75
> COc1ccc(N(C(=O)Cn2cnc3ccccc32)C(C(=O)NC2CCCCC2)c2ccccc2)cc1 (configuration not stated)
 : 0.9	i	0.94	-8	89	-18	51
> CC(C)C[C@H](NC(=O)c1nc[nH]c1C(=O)N(C)Cc1ccccc1)C(=O)OC(C)(C)C
 : x	i	0.95	3	103	x	x
> CC1CC(CCC(=O)NC(=S)Nc2ccc(S(N)(=O)=O)cc2)C(=O)O1 (configuration not stated)
 : x	i	0.96	-2	118	-79	14
> CN(C)S(=O)(=O)c1ccc(NC(=O)COc2ncnc3sccc23)cc1
 : x	i	0.87	-4	95	x	x
> COc1ccccc1NCC(=O)n1nc(C)cc1C
 : x	i	1.1	3	93	x	x
> NNC(=O)c1nc(-c2cccc(-n3cccc3)c2)no1
 : x	i	1.1	x	95	x	x
> CC1=CC(C)(C)NC(=S)N1c1cccc2ccccc12
 : -1.3	i	0.78	-2	107	-128	82
> CC(=O)c1c(C)nc(-c2ccc3c(c2)OCO3)n1O
 : 0.3	i	0.96	5	91	x	x
> Cc1cccc(N2C(=O)C(Cl)=C(N3CCOCC3)C2=O)c1
 : x	i	0.75	x	98	x	x
> COCC(=O)Nc1ccc(C(N)=O)cc1
 : -2.1	i	0.82	-10	115	0	95
> COc1ccc(-c2nn(-c3ccccc3)cc2/C=N/N2C(=O)CSC2=S)cc1
 : -1.5	i	1	-9	98	-380	110
> COC(=O)c1[nH]c(C)c(/C(O)=C2\C(=O)C(=O)N(CCN3CCOCC3)C2c2cccnc2)c1C (configuration not stated)
 : -1.3	i	1.2	4	99	11	100
> Cc1nc(CSc2ccc(Cl)cc2)cc(N2CCOCC2)n1
 : -1.6	i	1.1	-3	100	-31	96
> CC1CCCCN1S(=O)(=O)c1cccc(S(=O)(=O)N2CCOCC2)c1 (configuration not stated)
 : x	i	1	x	112	x	x
> COc1cc2c(C(=O)N3CCN(c4ccccc4)CC3)c(C)oc2cc1Br
 : -3.3	i	0.85	3	97	-14	39
> CCOC(=O)c1cn(CC(=O)Nc2ccc(OC)cc2OC)nn1
 : x	i	1.1	6	102	x	x
> Oc1ccccc1N1CCN(c2ncccn2)CC1
 : -1.0	i	0.84	-2	99	-14	83
> CCCOC(=O)CCCC[C@H]1SC[C@@H](NC(=O)OC)[C@H]1NC(=O)OC
 : -2.9	i	1.1	5	93	60	102
> O=C(Nc1cccc(-c2cnc3ccccc3n2)c1)c1ccc(Cl)cc1
 : -1.6	i	0.8	6	98	x	x
> COc1ccc(CN2C(=O)[C@@H]3C(c4ccccc4Cl)=NO[C@@H]3C2=O)cc1
 : -0.9	i	0.92	5	110	x	x
> COc1cccc(/C=C(\C#N)C(=O)NC2CCS(=O)(=O)C2)c1 (configuration not stated)
 : -0.9	i	0.98	0	101	x	x
> C(=C\c1ccccn1)/c1cccnc1
 : x	i	0.9	x	100	x	x
> CCOc1ccccc1Oc1coc2cc(OC(=O)c3ccco3)ccc2c1=O
 : -1.9	i	1.1	-8	95	9	108
> Cc1ncsc1C(=O)N1N=C2/C(=C/c3ccc(N4CCOCC4)cc3)CCCC2C1c1ccc(N2CCOCC2)cc1 (configuration not stated)
 : 1.6	i	0.85	7	103	-62	52
> COc1ccc(OC)c(C(=O)c2coc3ccc(O)cc23)c1
 : 0.4	i	0.91	6	104	x	x
> CN1CCN(CCOC2Cc3ccccc3Sc3ccc(Cl)cc32)CC1 (configuration not stated)
 : -0.3	i	0.72	1	101	-79	124
> NNC(=S)Nc1ccc(OC(F)(F)F)cc1
 : x	i	0.89	x	102	x	x
> CCCNS(=O)(=O)c1ccc(OCC(=O)Nc2ccccc2F)cc1
 : -1.0	i	1	7	97	-6	201
> COc1ccc(Br)c(C(=O)N2CCN(S(=O)(=O)/C=C/c3ccccc3)CC2)c1
 : x	i	0.99	5	94	x	x
> COc1ccccc1/C=C/C=N/n1c(-c2cc(-c3ccccc3)n[nH]2)n[nH]c1=S
 : x	i	0.99	x	96	x	x
> O=C(c1cc(-c2ccccc2)on1)N1CCCc2ccccc21
 : x	i	1.1	-7	100	x	x
> c1ccc2c(c1)CC/C2=N/Nc1nc2ccccc2[nH]1
 : x	i	0.85	-3	99	x	x
> CCS(=O)(=O)N1CCN(C(C)CCc2ccccc2)CC1 (configuration not stated)
 : -1.8	i	0.87	1	103	-29	87
> CCCc1nc(SCc2ccccn2)c2c(=O)n(C)c(=O)n(C)c2n1
 : 0.7	i	0.98	-5	103	x	x
> Cc1nnc(NC(=O)c2ccc(S(=O)(=O)N3CCc4ccccc4C3)cc2)o1
 : x	i	0.88	-2	99	x	x
> CCOC(=O)c1cc(-c2ccccc2)n(CC(=O)Nc2ccc(OC)c(OC)c2)c1C
 : 0.6	i	0.83	-14	103	-31	124
> COc1ccc(CSCC(=O)N/N=C/c2ccccc2OCc2ccccc2)cc1
 : -0.1	i	0.91	-10	97	21	122
> COc1ccc(Cl)cc1NC(=O)NC(C)c1ccncc1 (configuration not stated)
 : -0.3	i	0.97	-1	90	-291	79
